Mtb hypoxia rep: PubChem AID 1159583; M. tuberculosis hypoxia-regulated fluorescent reporter, fluorescence; 0.1% of 300,000 active; fluorescence inhibition, % (no concentration beside the values);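 active = 35 to 45% if threefold the growth effect, above 45% if 1.5-fold the growth effect; inactive = the rest, general growth blockers included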;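 note: wells of about 50 µL received 100 nL stock; 0% = vehicle wells and 100% = reference inhibitor wells; whole bacteria with a GFP reporter of the hypoxia response; strong numbers were not always called active; many hits fall short of the cut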
Sa ugtP lethal: growth inhibition of ugtP-null S. aureus, primary screen, RN4220 ugtP deletion, OD600; 16 h; some inactives read as strong as hits; growth inhibition, % (test concentration not listed); 0.54% of 330,000 active; AID 1259309, 2017;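 active = z-score under -3 and OD600 up to 0.15 on both plates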;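 note: plate controls were untreated wells for no effect and antibiotic for full effect; wells of about 80 µL received 100 nL stock; the first replicate is given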
Autofluor counter: compound fluorescence in toxin protease inhibitor counterscreen. compound autofluorescence counterscreen, microsphere flow cytometry; stronger effect = higher value. fluorescence intensity (test concentration not listed). 3.1% of 360,000 active. AID 624483;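 active = at least 3 SD above the mean of all compounds, about 16000 in these data; inconclusive = too few beads counted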;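 note: 100 nL of 1 mM stock went into each well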
BJeLR lethal: MLPCN primary cell-based screen for lethality selective to Ras in HRASV12 cells. BJeLR (HRASV12) viability, CellTiter-Glo ATP luminescence, 48 h; reference of the scale not given here. inhibition, % (no concentration beside the values). 0.17% of 300,000 active. AID 1554, 2009;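 active = replicate mean above 50%; inconclusive = above 50% but judged a plate artefact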;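 note: 50 nL library stock added to about 25 µL; numbers are from one replicate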
PrP 5UTR inh: inhibition of PrP 5' UTR reporter expression. cell-based PrP 5' UTR mRNA reporter, plate reader. 0.35% of 340,000 active. inhibition, % (test concentration not listed);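 active = every replicate at 50% or more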;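 note: 0 = median of the neutral control wells; tested in H4 reporter cells; numbers are from one replicate; inactives centre near -14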
RN4220 kill: growth inhibition of S. aureus RN4220, primary screen, OD600; 0.33% of 330,000 active; 16 h; inhibition, % (concentration not given with the values);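 active = z-score of -3 or lower and OD600 up to 0.18 on both plates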;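 note: plate controls were untreated cells for no effect and reference antibiotic for full effect; stock transfer was 100 nL into about 80 µL; one replicate is shown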
Mtb hypoxia rep growth: second read-out of Mtb hypoxia rep, no call of its own (marks repeat the call); growth inhibition, %; measured here: M. tuberculosis growth (absorbance);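 0% = vehicle and 100% = reference antibiotic; read after six days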
Starred values were filed as active, the others as inactive; ? = inconclusive; . = no result given.

The line under a structure holds: Mtb hypoxia rep	Mtb hypoxia rep growth	Sa ugtP lethal	Autofluor counter	BJeLR lethal	PrP 5UTR inh	RN4220 kill
- CCOC(=O)c1c(C)n(Cc2ccccc2)c2ccc(O)cc12
→ 6.5	5.5	18.9	3195	-5.9	-13.8	8.0
- CC(OC(=O)COc1ccc(C#N)cc1)C(=O)c1ccccc1 (configuration not stated)
→ 10.3	3.9	10.4	2981	.	-8.0	5.3
- COC(=O)c1cc(NS(=O)(=O)c2cccs2)cc(NS(=O)(=O)c2cccs2)c1
→ 3.2	2.0	1.4	?	.	-1.1	6.1
- CC(/C=N/Nc1ccc2nncn2n1)=C\c1ccccc1
→ .	.	.	6040	2.6	-21.2	.
- COc1ccc(NC(=O)C2CC(=O)N(c3cccc(C)c3C)C2)cc1 (configuration not stated)
→ 8.0	3.6	-1.3	6803	-1.5	-28.9	-0.6
- CCc1noc(C)c1C(=O)N(CCCOC)c1c(N)n(Cc2ccccc2)c(=O)[nH]c1=O
→ 0.4	14.7	3.4	?	-14.9	-6.1	3.4
- C=CCn1c(SCC(=O)Nc2ccc3c(c2)OCCO3)nc2cc(C(=O)O)ccc2c1=O
→ 3.7	-5.0	2.2	3086	.	-14.3	2.8
- CN(N=Cc1ccc(O)c(O)c1)c1nc(-c2ccccc2)cc(-c2ccccc2)n1
→ 6.1	-0.3	-4.2	.	.	.	2.2
- Cc1sc(NC(=O)c2ccco2)c(C(c2ccncc2)N2CCOCC2)c1C (configuration not stated)
→ 5.6	6.0	-1.2	18732*	1.9	-24.9	5.8
- CC(=O)c1ccc(N2C(=O)CC(N3CCN(S(=O)(=O)c4cc(C)ccc4C)CC3)C2=O)cc1 (configuration not stated)
→ 15.1	10.3	2.8	3800	.	-20.8	3.7
- CN(C)c1ccc(P(=O)(OCc2ccccc2)C(O)c2cccnc2)cc1 (configuration not stated)
→ 5.0	14.0	-4.2	20409*	17.8	-9.6	6.5
- CC(C)(C)c1ccc(C=NNC(=S)NC2CCCCC2)cc1
→ -2.5	0.6	38.5	.	.	.	-6.1
- C=CCOC(=O)C1=C(C)Nc2ncnn2C1c1cccs1 (configuration not stated)
→ 5.4	2.8	-0.1	7634	-2.9	.	1.0
- COC(=O)c1sc(NC(=O)c2ccoc2C)nc1C
→ 10.5	10.6	-0.5	8823	20.9	-30.8	3.1
- COc1ccc(CNC(=O)c2csc(Cc3ccc(OC)cc3)n2)cc1
→ .	.	51.9	2829	3.2	-8.5	-7.0

Remaining list, next part:
The line under a structure holds: Mtb hypoxia rep	Mtb hypoxia rep growth	Sa ugtP lethal	Autofluor counter	BJeLR lethal	PrP 5UTR inh	RN4220 kill
- CC(C)(C)NC(=O)C(c1ccc(F)cc1)N(Cc1ccco1)C(=O)CCC(=O)Nc1nccs1 (configuration not stated)
→ 1.2	2.0	2.2	4190	-5.0	-9.7	5.0
- O=[N+]([O-])c1ccc(S(=O)(=O)NCC(c2cccnc2)N2CCOCC2)cc1 (configuration not stated)
→ 2.1	-3.7	-0.1	2394	-1.5	-17.3	2.6
- CCCC(=O)Nc1cccc(S(=O)(=O)N(C)c2ccccc2)c1
→ -5.1	4.5	-4.0	2444	-3.5	-6.8	3.4
- C/C(=C\C(=O)c1ccc(Br)cc1)NCc1ccc(C)cc1
→ .	.	36.5	2426	0.1	-13.5	-2.6
- COc1ccccc1C1C(=C(O)c2ccccc2)C(=O)C(=O)N1CC(C)O (configuration not stated)
→ 7.3	10.9	-0.1	.	.	.	4.3
- C=CCn1c(N)c(C(=O)NCC2CCCO2)c2nc3ccccc3nc21 (configuration not stated)
→ 0.0	3.3	-9.0	9956	-3.7	-20.8	1.0
- O=C(O)C1CCCN1c1nc(-c2ccc(Cl)c(Cl)c2)cc(C(F)(F)F)n1 (configuration not stated)
→ 9.5	0.6	-15.5	3404	.	18.5	14.2
- CC(=O)Nc1ccc(C(=O)CSc2nnc(-c3ccccc3F)n2CCc2ccccc2)cc1
→ -2.3	-6.0	-14.5	.	.	-14.3	7.6
- COc1ccc(Cn2nnc(C(=O)Nc3ccc4c(c3)OCCO4)c2N)cc1Br
→ 0.4	-5.5	-4.4	4095	-12.3	-14.0	-5.8
- [O-][n+]1cccc(C(O)c2ccccc2)c1 (configuration not stated)
→ -1.9	3.0	6.5	3640	-4.8	-19.1	2.6
- CCCC(=O)n1nc(-c2ccco2)nc1N
→ 15.7	4.3	-5.8	2505	0.5	-11.5	-9.5
- Cc1ccc(Cl)cc1NC(=O)CN1C(=O)COc2ccc(S(=O)(=O)N3CCOCC3)cc21
→ 2.3	-0.8	-0.1	4110	16.8	-1.5	-2.6
- CC(C)(C)c1ccc(/C=N/N2C(=O)CSC2=S)cc1
→ .	.	.	5134	-12.0	-24.2	.
- Cc1ccc(Cn2c(=N)c(C(=O)NCC3CCCO3)cc3c(=O)n4ccccc4nc32)cc1 (configuration not stated)
→ 19.6	3.6	-4.7	4040	-5.7	-22.1	4.6
- Cc1ccc(C)n1NC(=O)c1ccccc1Cl
→ .	.	8.1	2439	-0.7	-5.0	0.0

Continued:
The line under a structure holds: Mtb hypoxia rep	Mtb hypoxia rep growth	Sa ugtP lethal	Autofluor counter	BJeLR lethal	PrP 5UTR inh	RN4220 kill
- Cc1nc([N+](=O)[O-])cn1-c1ccc(N)cc1
→ -9.1	-2.0	0.6	2263	-3.9	-18.8	5.6
- O=C(CCNC(=O)c1ccc(Br)cc1)NCc1ccco1
→ 1.4	12.3	2.4	?	-7.9	-1.8	3.0
- O=C(Cn1cnc2cc([N+](=O)[O-])ccc2c1=O)NCc1ccccc1
→ -12.8	8.9	-2.7	4684	-6.4	-86.3	20.4
- COc1cc(NC(=O)c2cccs2)c(OC)cc1NC(=O)Cc1ccccc1
→ 0.2	8.6	12.5	3933	9.5	-2.9	12.0
- O=C1/C(=C/c2ccc([N+](=O)[O-])cc2)C=C(c2ccccc2)N1c1ccccc1
→ 5.5	-4.4	-3.3	10543	3.4	-14.7	-2.7
- Cc1c(O)ccc2c(CC(=O)N[C@@H](Cc3ccc(O)cc3)C(=O)O)cc(=O)oc12
→ -0.9	3.2	-1.6	2938	-1.1	-1.0	-3.8
- CC1(C)c2[nH]c3ccccc3c2C[C@H]2C(=O)N(CCCO)CC(=O)N21
→ -4.3	12.8	-0.5	4000	4.5	-11.6	1.6
- Cc1ccc(C(=O)COC(=O)CCCC(=O)NC2CCCCC2)cc1[N+](=O)[O-]
→ 2.6	-3.5	0.3	11052	-5.2	-6.3	4.7
- Cc1ccccc1Nc1nc(Cl)c(C=O)s1
→ 17.1	10.3	8.5	3561	9.8	2.7	7.1
- O=C(Nc1cc(Cl)ccc1N1CCCC1)C1=COCCO1
→ 5.0	10.5	-7.0	4112	.	-1.5	-2.1
- CC(C)(C)C(=O)O/N=C1/C(=O)N(c2ccccc2)c2ccccc21
→ .	.	.	2767	3.0	-21.7	.
- COc1ccc(CNC(=O)CC(C)CC2=NS(=O)(=O)c3ccccc3N2)cc1 (configuration not stated)
→ 3.3	5.7	9.0	6064	-1.6	-46.5	1.9
- COc1ccc(CNC(=O)CSCc2cnn(-c3ccccc3)c2-n2cccc2)cc1
→ 13.0	7.4	-0.4	8939	0.6	-24.7	0.9
- COc1ccc(-n2c(Cc3cc(=O)[nH]c(=O)[nH]3)nnc2SCc2ccccc2)cc1
→ .	.	8.8	4079	-4.6	-4.5	2.3
- Cc1nn(C(=O)c2cccnc2)c(C)c1C
→ 0.1	9.5	-9.9	20525*	7.4	-22.2	5.8

Later entries
The line under a structure holds: Mtb hypoxia rep	Mtb hypoxia rep growth	Sa ugtP lethal	Autofluor counter	BJeLR lethal	PrP 5UTR inh	RN4220 kill
- COC(=O)c1cn(C(=O)OC)c2ccccc12
→ 7.5	2.9	3.3	4237	-4.8	-9.8	9.9
- CC[C@@H](C)[C@H](NC(=O)CCc1c(C)c2cc3c4c(oc3c(C)c2oc1=O)CCCC4)C(=O)O
→ 11.8	0.6	1.4	3577	-4.3	7.4	10.9
- O=C(NC1CCCCC1)NC1CC2CCCC(C1)N2C1CCCC1 (configuration not stated)
→ 2.2	-11.5	0.1	3848	-2.0	-19.8	-1.6
- Cc1nnc(NC(=O)Nc2cccc(Cl)c2)s1
→ .	.	-15.8	2373	5.0	-45.4	-0.4
- CN(C)CCOc1ccccc1C(C)(C)C
→ 3.8	8.7	3.6	9844	0.0	-2.5	2.9
- CCc1nnc(NC(=O)CN2CCN(CC)CC2)s1
→ 3.6	5.0	4.2	3699	-2.5	-17.6	2.7
- Cc1ccc2nsnc2c1NC(=O)c1ccccc1[N+](=O)[O-]
→ -0.2	-0.1	-3.7	2025	-7.3	-5.3	6.1
- CC(C)c1nn2c(=O)cc(CSc3ccccc3NC(=O)c3ccccc3F)nc2s1
→ -3.2	0.6	-2.5	4050	7.5	13.2	3.7
- COc1cc2c(cc1OC)CN(CC(=O)Nc1ccc(C#N)cc1)CC2
→ 5.5	4.8	9.0	8184	0.4	-12.9	-1.5
- CCCCn1c(=O)c(C(=O)OCC)c(O)c2ccccc21
→ 1.6	6.0	6.0	3184	-13.8	0.1	4.4
- CN(C)CCCNC(=O)N1c2ccccc2Sc2ccccc21
→ 8.8	6.5	1.5	3813	1.9	-17.7	2.3
- COc1ccc(NC(=O)CCn2ccnc2)c(OC)c1
→ 3.1	-13.5	3.7	2937	5.7	-17.0	0.0
- O=C(NNCC(O)COc1ccccc1)c1ccccc1 (configuration not stated)
→ -7.4	-3.3	1.1	2039	-6.4	-2.6	-1.5
- COc1ccc(C(=O)NN=Cc2ccc(OC)c(OS(=O)(=O)c3ccccc3)c2)cc1
→ -8.2	19.8	-13.2	.	.	.	-2.9
- O=C(NC(Cc1ccccc1)C(=O)O)OCC1c2ccccc2-c2ccccc21 (configuration not stated)
→ 3.9	5.6	12.0	2882	-3.1	-14.9	20.0

The list goes on:
The line under a structure holds: Mtb hypoxia rep	Mtb hypoxia rep growth	Sa ugtP lethal	Autofluor counter	BJeLR lethal	PrP 5UTR inh	RN4220 kill
- CNS(=O)(=O)c1cc(C(=O)OCC(=O)NC2CCCc3ccccc32)ccc1Cl (configuration not stated)
→ 7.1	-0.8	-5.1	10992	0.3	-7.3	-0.6
- O=C(O)c1ccc(NS(=O)(=O)c2cc(C(=O)O)ccc2Br)cc1
→ 7.5	3.2	0.1	2500	5.2	-6.9	7.6
- CCOC(=O)COc1cc(OCC(=O)OCC)c2c(=O)cc(-c3ccccc3)oc2c1
→ 10.9	5.0	-12.1	10161	-8.1	-27.3	4.1
- COc1cc(NS(=O)(=O)c2ccc(NC(=S)NC(=O)c3ccco3)cc2)nc(OC)n1
→ -8.3	7.1	4.2	4851	-1.7	-7.6	0.7
- O=C(NCc1ccccc1Cl)C1CCCN(S(=O)(=O)c2cnc[nH]2)C1 (configuration not stated)
→ .	.	0.2	4068	9.6	-14.3	5.4
- CCC(C)C1CNCCN1CCc1cccc2ccccc12 (configuration not stated)
→ 18.1	9.1	1.4	.	.	.	1.9
- Cn1ccnc1CC(O)(c1ccccc1)c1ccccc1
→ -5.8	2.0	6.2	3453	13.9	-29.4	0.7
- CCOC(=O)CSc1n[nH]c(-c2ccco2)n1
→ .	.	2.2	5814	-9.1	-18.5	7.5
- Cc1ccc(/C=N/NC(=O)CSc2nnc(-c3ccccc3)n2-c2ccc(Cl)cc2)o1
→ .	.	.	2211	-1.0	-26.2	.
- CCCN1C2CCCC1CC(NC(=O)c1ccc(OC)cc1)C2 (configuration not stated)
→ -2.5	-5.0	6.2	.	-2.7	-7.6	-0.3
- Cc1cccc(Cl)c1NC(=O)N1CCCN(c2ncccc2[N+](=O)[O-])CC1
→ 13.8	9.0	5.4	6269	-3.9	-30.3	4.3
- COC(=O)C(O)(c1cn(C)c2ccccc12)C(F)(F)F (configuration not stated)
→ .	.	-3.9	5844	-4.3	14.7	-1.2
- CC(C)NS(=O)(=O)c1ccc(OCC(=O)N2CCN(c3ccccc3)CC2)cc1
→ 10.2	13.4	1.1	2838	2.5	6.2	5.8

Compound activity: PubChem BioAssay, several laboratories
